# Screening data (PubChem)
# Biofilm kill mix – mixtures killing C. albicans biofilm | C. albicans biofilm persisters + clotrimazole, fluorescence viability; primary screen in compound mixtures of four per well | inhibition, % at 7.6 µM | 120,000 compounds, 0.02% hits | AID 1242;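 active = inhibition above 30.3% in the primary screen of four-compound pools, then above 30% when the compound was retested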;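 note: compounds exposed to preformed 24 h biofilms for 48 h; the number belongs to the whole pool; some results filed as inactive read as strong as hits; inactives centre near 12; 0% = biofilm with clotrimazole alone and 100% = kill control; retested singly at about 60 µM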
#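 Test system: C. albicans biofilms. Buffer or medium: RPMI/MOPS medium, pH 7.0. Timing: 48 h compound exposure at 37 °C. Technique: Alamar Blue fluorescence. Evaluation: percent inhibition of biofilm viability.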
# * hit, by the source's call.
structure,Biofilm kill mix
CCCn1cc(SCC(N)=O)c2ccccc21,32
CC(C)(C)/C(COc1ccccc1[N+](=O)[O-])=N/O,12
Cc1ccc(O)c(-c2cc(C(=O)Nc3ccc(S(=O)(=O)Nc4nc(C)cc(C)n4)cc3)[nH]n2)c1,10
CCOC(=O)C1(CC2CCCCO2)CCN(C(=O)Nc2ccccc2)CC1 (stereo unspecified),4
COc1cc(/C=N/NS(=O)(=O)c2ccc(C)cc2)ccc1OCc1ccc(C(=O)O)cc1,0
O=C(NCCOc1ccc(Cl)cc1)c1ccc2ccccc2n1,-5
NS(=O)(=O)c1ccc(F)c(C(=O)O)c1,11
CC(C)CNC(=O)c1ccccc1NC(=O)c1ccccc1N(C)S(=O)(=O)c1ccccc1,7
O=C(O)CSc1c2c(nc3cc(C(=O)NCCN4CCOCC4)ccc13)CCC2,28
COC(=O)c1sc(N2CCCCC2)c(C#N)c1N,11
O=C1C2CCCN2C(=O)N1CCCCN1CCN(c2cccc(Cl)c2)CC1 (stereo unspecified),18
CCOc1ccc(Nc2nc(NCC3CCCO3)c3ccccc3n2)cc1 (stereo unspecified),9
O=C(COc1ccc(Br)cc1)Nc1ccc2c(c1)C(=O)NC2=O,-4
CCN(CC)c1ccc(/C=N/NC(=S)NCc2ccccc2)c(O)c1,14
CN(C)C(CNc1ncnc2sccc12)c1ccccc1 (stereo unspecified),16
O=CN1CCN(C(=O)COc2ccc(Cl)cc2Br)CC1,25
Cc1cccc(OCC(=O)Nc2ccccc2C(F)(F)F)c1,17
FC(F)(F)c1ccccc1NC(=S)NN=C1CCCCCC1,3
ClCCN1C2=NCCCN2c2ccccc21,11
CC1=CC(C)(C)Nc2ccc(OC(=O)CN3C(=O)c4ccccc4C3=O)cc21,19
CC1COc2ccccc2N1C(=O)c1cccnc1Cl (stereo unspecified),12
CN(C)/C=C(/C(=O)c1ccc(Cl)cc1)n1cncn1,15
CC(=O)Nc1ccc(Br)c2ccccc12,12
Cc1cc2ncn(/N=C/c3ccc4c(c3)OCO4)c2cc1C,8
CCN1CCc2nc(NC(=O)c3ccc(S(=O)(=O)N(C)C)cc3)sc2C1,15
CCc1cccc(C)c1NC(=O)COC(=O)Cc1ccsc1,11
CN(Cc1cccs1)C(=O)Cn1cnc2ccccc2c1=O,4
O=C(COC(=O)c1ccc2[nH]c3c(c2c1)CCCC3)Nc1ccc(Cl)cc1Cl,9
O=C(CS(=O)(=O)c1ccccc1)Nc1ccc(N2CCOCC2)cc1,18
Nc1cc(N)nc(SCc2nnnn2-c2ccc(Cl)cc2)n1,17
O=C(COC(=O)C1Cc2ccccc2CN1C(=O)c1ccccc1)Nc1ccc(SC(F)F)cc1 (stereo unspecified),9
C[N+]1(C2CCC3CCCC2C3O)CCCC1 (stereo unspecified),13
O=C(NC1CCN(Cc2ccccc2)CC1)c1c(F)cccc1F,4
CCCC[C@@H]1CN=C(N)N1CCc1cc(C(F)(F)F)cc(C(F)(F)F)c1,12
CN1CCC2(CC1)C1CN(C)CC=C1C(C#N)=C(N)C2(C#N)C#N (stereo unspecified),7
O=C(NCc1ccc(S(=O)(=O)Nc2ccccc2Cl)s1)c1ccccc1,19
CC/C(C)=N/NC(=S)NCc1ccco1,2
Fc1ccc(CNCc2ccc(Br)cc2)cc1,6
C#CCOCCOCCOCCNc1nc(N2CCN(C(=O)[C@H]([C@@H](C)CC)n3cc(CCCN=C(N)N)nn3)CC2)nc(N2CCN(C(=O)[C@H](CCCCN)n3cc(CCC(=O)O)nn3)CC2)n1,1
COC(=O)C1=C(C)N(Cc2ccco2)C(=O)N[C@H]1c1cccc(C(F)(F)F)c1,13
COc1ccc(N(C)S(=O)(=O)c2cccc(C(=O)NCc3ccc4c(c3)OCO4)c2)cc1,0
Cc1ccc2nc(C)c(C(=O)N/N=C/c3cccs3)cc2c1,10
O=C(CCn1c(=S)oc2ccccc21)NC1CCCCCCC1,21
N#Cc1ccc(-c2cccnc2)nc1SCC(N)=O,19
O=C(CSc1c2c(nc3ccccc13)CCC2)N1CCCC1,9
Cc1nn(-c2ccccc2)nc1CNC(=O)C1CCC1,17
Cc1nc(CS(=O)(=O)c2ccccn2)sc1C(=O)NNC(=O)c1c(F)cccc1Cl,13
Cc1cccc(C(=O)N/N=C/C(C)Cc2ccc3c(c2)OCO3)c1 (stereo unspecified),17
CCOC(=O)C1=C(CC)OC(N)=C(C#N)C1c1ccc(F)cc1F (stereo unspecified),0
COc1ccccc1C(=O)Nc1ccc2c(c1)nc(CN1CCCCC1)n2C,23
O=C1Nc2ccc([N+](=O)[O-])cc2C1=Nc1cccc(CO)c1,-1
CC(C)(C)/C(O)=C/c1nc2cc(Cl)ccc2oc1=O,14
O=C(Nc1nc2c(Br)cc(Br)cc2c(=O)s1)c1ccco1,13
O=C(O)Cc1cc(C(=O)Nc2ccc(Br)cc2)sc1-c1ccccc1,6
CSc1nnc(C)c(=O)n1COC(=O)COc1ccc(F)cc1,7
CC(C)Cn1c(N)c(C(=O)CCl)c(=O)n(C)c1=O,9
O=C(O)COc1ccc2oc3ccccc3c2c1,10
CCOC(=O)CSc1nc(C)c2cccc(C)c2n1,24
CCOC(=O)C1=C(CN2CCSCC2)NC(=O)NC1c1ccc2c(c1)OCO2 (stereo unspecified),12
Cc1ccc(OCCN2CCN(C)CC2)c([N+](=O)[O-])c1,11

# In a second layout: entries from further up
Structure: Cc1cccc(C(=O)N/N=C/C(C)Cc2ccc3c(c2)OCO3)c1 (stereo unspecified)
  Biofilm kill mix: 17
Structure: CCOC(=O)C1=C(CC)OC(N)=C(C#N)C1c1ccc(F)cc1F (stereo unspecified)
  Biofilm kill mix: 0

# Continuation.
structure,Biofilm kill mix
Cc1cc(/C=C2\SC(=O)NC2=O)c(C)n1-c1ccc(N2CCOCC2)cc1,3
Cc1ccc(N(C(=O)c2ccc(CN3CCOCC3)o2)C(C(=O)NCCC(C)C)c2cccs2)c(C)c1 (stereo unspecified),10
O=C(CSCC(=O)Nc1cccc2ccccc12)Nc1cccc2ccccc12,55
Cc1onc(-c2ccccc2)c1C(=O)N1CCCN2C(=O)c3ccccc3C21 (stereo unspecified),18
Cc1nn(-c2ccccc2)c(C)c1NC(=O)Cc1cccs1,13
CCCCCCCCCCOC(=O)NC1CCS(=O)(=O)C1 (stereo unspecified),12
CCOc1ccc(NC(=O)CC2C(=O)N(CC)C(=S)N2CCN2CCOCC2)cc1 (stereo unspecified),13
CC(C)NCC(O)COC1CCC(C(C)(C)C)CC1 (stereo unspecified),10
O=C(CCn1c(=O)c2ccccc2n(Cc2cc(=O)n3ccccc3n2)c1=O)NCc1ccco1,17
O=C(c1ccccc1)N1CCCC(C(=O)N2CCN(c3ccccc3)CC2)C1 (stereo unspecified),11
CCCN(Cc1ccccc1)C(=S)Nc1ccc(OCC)cc1,16
O=c1cc(CSc2nnnn2-c2ccccc2)nc2sccn12,3
CCCCn1nnc(NC(=O)C(c2ccccc2)c2ccccc2)n1,-4
O=C(COC(=O)Cc1ccc(F)cc1)Nc1cc(S(=O)(=O)N2CCOCC2)ccc1N1CCCC1,16
COc1ccc(S(=O)(=O)CC2(O)CCN(C(=O)CC(C)C)CC2)cc1,15
COc1ccc(N2CCN(C(=O)c3cc(=O)[nH]c4ccccc34)CC2)cc1,-6
S=C(NCc1ccco1)Nc1cc(Cl)c(Cl)cc1Cl,6
Cc1cc2cc(CNC(=O)Cc3cccs3)ccc2n1C,5
COc1cc(/C=N/NC(=O)CCN2CCN(C(c3ccccc3)c3ccccc3)CC2)ccc1O,19
COc1cc(C(=O)Nc2ccncc2)c([N+](=O)[O-])cc1OC,0
CCOc1cc(Br)c(CC(=O)O)cc1OCC,16
CC1=NNC(=O)/C1=C\c1cn(-c2ccccc2)nc1-c1ccccc1,12
O=C(NN1C(=O)C2C3CCC(O3)C2C1=O)c1ccc(Br)o1 (stereo unspecified),17
O=C(CCN1CCOCC1)c1ccc2c(c1)OCCO2,7
Cc1ccc(NC(=O)C2CCN(S(=O)(=O)c3cccs3)CC2)cc1,5
CCOC(=O)C1=C(C)NC2=C(C(=O)c3ccccc32)C1c1ccc([N+](=O)[O-])o1 (stereo unspecified),14
CC1(C)Cc2c(sc(NC(=O)COc3ccccc3)c2C#N)C(C)(C)N1,22
CCn1c(SCC(=O)c2ccccc2)nnc1-c1cccnc1,14
O=c1[nH]c2cc3c(cc2cc1CN(Cc1cccnc1)C(=S)NCc1ccco1)OCO3,9
COC(=O)C(/C=N/O)NC(=O)c1ccccc1 (stereo unspecified),13
CCOc1ccc(NC(=O)CSc2ncc(-c3ccc(F)cc3)n2Cc2ccco2)cc1,20
COc1ccc(S(=O)(=O)N2CCOC2CNC(=O)C(=O)NCCc2c[nH]c3ccccc23)cc1C (stereo unspecified),14
O=C(NC1CCCC1)c1ccccc1-c1ccccc1,15
COc1ccc(CNC(=O)CN(c2ccccc2)S(=O)(=O)c2ccccc2[N+](=O)[O-])cc1,24
CN(CC(=O)O)S(=O)(=O)c1ccc2c(c1)n(C)c(=O)c(=O)n2C,7
CC1(C)OC(=O)C(=CNc2ccccn2)C(=O)O1,16
CCC(C)NCCC(=O)Nc1ccc(Cl)c(S(=O)(=O)Nc2ccc(Cl)cc2)c1 (stereo unspecified),24
COCCCNC(=S)Nc1ccc2nc3n(c(=O)c2c1)CCCCC3,12
COCC1CCN(Cc2cn(-c3ccccc3F)nc2-c2cc(C)sc2C)CC1,4
O=C(CNC(=O)c1ccc(S(=O)(=O)N2CCCC2)cc1)N/N=C/c1ccc(Cl)cc1,15
CCCCCc1ccc(OCCC[n+]2ccccc2)c(CCCCC)c1,4
CC(C)CCN1CCN(C2CSCCSC2)CC1CCO (stereo unspecified),24
COc1ccccc1NC(=O)CNc1ccc(F)c(Cl)c1,18
O=C(CSc1nc2ccccc2[nH]1)c1c[nH]c2ccccc12,16
Cc1ccc(NC(=O)c2cc3c(s2)CCCC3)cc1,13
C/C(=N\Nc1nc(Cl)c(Cl)cc1Cl)c1ccc(S(=O)(=O)NCc2ccco2)cc1,18
COC(=O)c1ccc(/C=C/c2ccc3cccc(OC)c3n2)cc1,20
Cc1cc(N)n(-c2cc(C)c3ccccc3n2)n1,-2
O=C(NCc1ccncc1)C(=O)N/N=C/c1ccc(OCc2ccccc2)cc1,17
COC(=O)[C@@]1(Cc2ccc(F)cc2)[C@H]2c3cc(C(=O)N(C)C)n(C[C@H](O)CO)c3C[C@H]2CN1C(=O)c1ccccc1,2
CCc1ccc(C(N)=S)cc1,13
COc1ccccc1C/C(N)=N/OC(=O)COc1cc(C)cc(C)c1C,15
O=C(N/N=C/c1cc([N+](=O)[O-])ccc1O)C1CCCCC1,16
OCCNC(=S)Nc1cc(Cl)cc(Cl)c1,25
CCCN1C(=O)c2[nH]nc(-c3cc(Cl)c(C)cc3O)c2C1c1ccc(O)c(OC)c1 (stereo unspecified),24
CCOc1cc(C(c2c(C)[nH][nH]c2=O)c2c(C)[nH][nH]c2=O)ccc1O,0
FC(F)(F)c1cc(CCN2C(=S)NC[C@@H]2Cc2ccccc2)cc(C(F)(F)F)c1,17
N=C1/C(=C\c2ccc(-c3cc(Cl)cc(Cl)c3)o2)C(=O)N=C2SC=C(c3ccccc3)N12,17
O=C(NC1CCCCNC1=O)c1ccccc1 (stereo unspecified),26
COc1cc2c3c(c1)C(C)=CC(C)(C)N3C(=O)C2=O,16

# In the list so far, these have bromine.
structure,Biofilm kill mix
O=C(COc1ccc(Br)cc1)Nc1ccc2c(c1)C(=O)NC2=O,-4
O=CN1CCN(C(=O)COc2ccc(Cl)cc2Br)CC1,25
CC(=O)Nc1ccc(Br)c2ccccc12,12
Fc1ccc(CNCc2ccc(Br)cc2)cc1,6
O=C(Nc1nc2c(Br)cc(Br)cc2c(=O)s1)c1ccco1,13
O=C(O)Cc1cc(C(=O)Nc2ccc(Br)cc2)sc1-c1ccccc1,6
CCOc1cc(Br)c(CC(=O)O)cc1OCC,16
O=C(NN1C(=O)C2C3CCC(O3)C2C1=O)c1ccc(Br)o1 (stereo unspecified),17

# Next section:
structure,Biofilm kill mix
COc1cc(/C=N/NC(=O)c2sc3nc(C)cc(C)c3c2N)ccc1O,16
CCCCC1=CC2=CC(=O)C(C)(OC(=O)CC)C(=O)C2=CN1Cc1ccc(OC)cc1 (stereo unspecified),9
C=CCc1ccc(OCCN2CCc3ccccc3C2)c(OC)c1,22
OC(COc1ccc2c(c1)OCO2)CN1CCCCC1 (stereo unspecified),12
COc1ccc(/C=C/C(=O)Nc2nonc2NC(C)=O)cc1,18
O=C(CN1CCOCC1)Nc1ccc(N2CCN(c3ccccc3)CC2)c(F)c1,18
CCC(C)NC(=O)c1ccc2c(SCC(=O)O)c3c(nc2c1)CCCC3 (stereo unspecified),5
CC(C)NC(=S)N=Nc1c(O)[nH]c2ccc([N+](=O)[O-])cc12,10
CN(C(=O)COc1ccccc1C(=O)NCCOc1ccccc1)c1ccccc1,13
COc1ccc(OCCSc2nnc(Cc3cccc4ccccc34)n2N)cc1,9
NS(=O)(=O)c1ccc(CCNC(=O)c2cc(-c3ccccc3)nc3ccccc23)cc1,17
CC(=O)Oc1ccc(N2C(=O)C3C(C2=O)C2C=CC3C23CC3)cc1[N+](=O)[O-] (stereo unspecified),21

# These rows are one share of the data; rates above refer to the full screens.
